UCH37 inh = blocks the human deubiquitinase UCH37; Q9Y5K5; purified proteasome/UCH37, Ub-AMC cleavage fluorescence; inhibition, % (concentration not given with the values); 330,000 compounds, 0.33% hits; AID 588478;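 active = mean of two replicates above 20%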;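 also: 0% = compound-free wells with enzyme and 100% = wells lacking proteasome; stock transfer was 100 nL into about 20 µL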
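Material: human UCH37 enzyme supplied as purified proteasome complex / Amount: 0.15 nM proteasome as dispensed / Buffer or medium: pH 7.4 Tris-HCl (50 mM) with ovalbumin, ATP-MgCl2, DTT / Times: preincubation 30 min, reaction 25 min, room temperature / Technique: AMC fluorescence from Ub-AMC cleavage, excitation 355 nm, emission 460 nm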
HNF4A DNA FP = change in binding of human HNF4 alpha to DNA | AID 1224865 | P41235 | HNF4a-FITC DNA binding, fluorescence polarization, 1 h | 360,000 compounds, 0.3% hits | activity change, % at 10 µM; in the data active = activity change above about 30%, passing the limit was not always enough;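 also: controls were the assay level and a saturating level of protein; the project sought stronger binding though the title names inhibitors; some compounds called inactive have numbers as strong as hits; positive values seem to mean higher polarization but the record does not say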
Target sequence (P41235 whole entry, looked up): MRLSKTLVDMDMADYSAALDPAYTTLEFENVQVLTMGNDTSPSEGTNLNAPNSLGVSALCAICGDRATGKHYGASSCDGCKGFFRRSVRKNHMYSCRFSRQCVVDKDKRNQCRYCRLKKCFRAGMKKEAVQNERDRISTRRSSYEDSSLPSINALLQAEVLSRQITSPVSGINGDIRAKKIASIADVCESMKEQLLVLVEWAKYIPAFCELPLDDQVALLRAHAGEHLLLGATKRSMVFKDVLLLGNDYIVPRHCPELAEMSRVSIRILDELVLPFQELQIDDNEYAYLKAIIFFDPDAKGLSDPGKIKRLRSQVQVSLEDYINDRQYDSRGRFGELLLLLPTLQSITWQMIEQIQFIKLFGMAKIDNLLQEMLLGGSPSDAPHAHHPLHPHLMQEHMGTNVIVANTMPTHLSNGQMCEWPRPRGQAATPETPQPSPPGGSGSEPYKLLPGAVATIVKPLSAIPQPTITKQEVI
FGF22 binding = binders of recombinant human FGF22 by thermal shift; calls only at 9.99 µM; AID 651658; 340,000 compounds, 1.5% hits; SYPRO orange fluorescence; percent of sucrose octasulfate shift, DMSO zero; Q9HCT0;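 active = melting point raised past a set limit in the mean and every replicate; three in four hits are not shown here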
Target sequence (Q9HCT0 whole entry, looked up): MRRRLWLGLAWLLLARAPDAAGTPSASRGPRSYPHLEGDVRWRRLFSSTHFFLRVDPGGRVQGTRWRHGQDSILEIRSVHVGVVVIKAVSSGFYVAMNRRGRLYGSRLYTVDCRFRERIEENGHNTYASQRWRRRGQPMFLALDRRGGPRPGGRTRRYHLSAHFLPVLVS
ALR inh = inhibitors of human sulfhydryl oxidase ALR | P55789 | purified ALR, DTT oxidation, H2O2 HRP-luminol luminescence | inhibition, % (no concentration beside the values) | 290,000 compounds, 3.8% hits;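 active = mean and each replicate at 75% or more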;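 also: stock transfer was 7.5 nL into about 7.5 µL; 0% = neutral wells and 100% = wells with inactivated enzyme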
Target sequence (P55789 whole entry, looked up): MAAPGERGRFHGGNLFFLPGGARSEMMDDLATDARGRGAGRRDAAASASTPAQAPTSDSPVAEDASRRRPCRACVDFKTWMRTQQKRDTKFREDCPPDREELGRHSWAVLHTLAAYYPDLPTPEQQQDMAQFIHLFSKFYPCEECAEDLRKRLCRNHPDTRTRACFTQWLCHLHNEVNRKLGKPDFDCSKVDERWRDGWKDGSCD
rRNA inh HTS = inhibits bacterial ribosomal RNA function over humanized ribosomes; AID 720706; GFP signal change (wild-type ribosome), % (no concentration beside the values); E. coli WT GFP vs humanized-ribosome RFP mutants, fluorescence, 24 h; hits give low values; DMSO median 0, no signal -100; 350,000 compounds, 1.6% hits;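 active = significant combined selectivity score with lowered wild-type GFP, culture density cut under 30%, mutant RFP and density less affected; inactive = any of these conditions unmet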; also: one replicate is shown; some compounds called inactive have numbers as strong as hits
Ecoli growth = inhibitors of Escherichia coli growth. AID 1053175. OD600 absorbance (concentration not given with the values). OD600, 23 h; hits give low values. 330,000 compounds, 0.21% hits;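 active = OD600 absorbance below the run mean of sample wells minus 3.6 SD, in any replicate, cut at about 0.56 in these data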;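 also: stock transfer was 300 nL into about 60 µL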
Beta2AR agonist = human beta-2 adrenergic receptor agonism by FAP; P07550; Am2.2-beta2AR cells, FAP receptor internalization, flow cytometry; reference of the scale not given here; response, % (no concentration beside the values); 340,000 compounds, 0.43% hits; AID 504454;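 active = response above a set limit, near 3 SD of response in nonfluorescent compounds, cut at about 42% in these data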;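 also: stock transfer was 100 nL into about 11 µL; a reference agonist was the positive control; negative values mostly stem from fluorescent compounds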
rRNA inh HTS OD600 = recorded beside rRNA inh HTS, whose call it bears; OD600 change, %; measured here: OD600 growth;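 optical density of the mix in the first replicate; 0 = DMSO median and -100 = no signal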
rRNA inh HTS RFP = further read-out of rRNA inh HTS, marked with its call; RFP signal change, %; measured here: RFP humanized mutant strains;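 first replicate; 0 = DMSO median and -100 = no signal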
The depositor's hits bear a star; i = inactive; . = no result given. These rows are one share of the data (hit frequency here may not be typical).

SMILES	UCH37 inh	HNF4A DNA FP	FGF22 binding	ALR inh	rRNA inh HTS	rRNA inh HTS OD600	rRNA inh HTS RFP	Ecoli growth	Beta2AR agonist
COc1ccc(/C=N/NC(=O)c2cccc([N+](=O)[O-])c2)cc1O	.	-1.9	i	68	11	2	-3.8	.	2
COc1ccc(C(C)=O)cc1CON=C1CSCc2ccccc21	.	6.6	i	.	-2	5	5.2	.	.
Cn1c(N)c(C(=O)COC(=O)CSc2ccccc2)c(=O)n(C)c1=O	3.4	2.9	i	-19	-18*	12*	1.8*	0.65	3
Cc1ccc(C(=O)CSc2nnc(-c3ccncc3)n2C)cc1	1.1	-1.6	i	34	15	22	14	0.67	-3
Cc1ccc(CNS(=O)(=O)c2cc3c(cc2C)NC(=O)CO3)cc1	3.0	1.1	i	-26	-3	-12	3.4	0.77	-4
CSc1ccccc1NC(=O)COC(=O)CCc1ccccc1	2.8	2.0	i	-92	4	9	1.6	0.69	6
COc1ccc(-c2cc(CNS(=O)(=O)c3ccc(F)cc3)on2)cc1	0.4	-1.7	.	-8	-14	-22	-1.4	0.68	-3
Cc1cc(C)nc(NS(=O)(=O)c2ccc(NC(=O)C3CC(=O)N(c4ccccc4)C3)cc2)n1 (stereo unspecified)	-0.8	-0.1	i	-2	2	2	-2.3	0.73	-6
COc1ccc(CN(C(=S)Nc2ccccc2)C2CC(=O)N(c3ccc(F)cc3)C2=O)cc1 (stereo unspecified)	4.6	4.1	.	-10	.	.	.	0.69	0
Cc1cccc2sc(NNC(=O)c3ccc(S(=O)(=O)N4CCc5ccccc5C4)cc3)nc12	2.1	3.1	i	-22	-8	-1	2.8	0.72	22
CC(NC(=O)NCC1CCCO1)(C(F)(F)F)C(F)(F)F (stereo unspecified)	0.4	1.1	.	0	.	.	.	0.71	2
CC(C)(C)c1nc(CN2CCOCC2)ccc1O	3.3	-0.1	.	-8	.	.	.	0.66	1
CN(C(=O)Cn1cccc1C1=NC(c2ccccc2)CO1)c1ccccc1 (stereo unspecified)	0.0	2.1	i	.	-18	-22	-1.6	0.71	6
COc1ccc(CNC(=O)CCSCc2cccc(Cl)c2)c(OC)c1	-0.7	-3.0	i	-11	-49	-70	-15	0.68	8
O=c1n(Cc2ccc(F)cc2)nc2n1-c1ccccc1SC2	4.2	1.6	i	-6	2	7	-2.2	0.64	-6
CCCCN1C(=O)C(NC(=O)C2CC2)(C(F)(F)F)C2=C1CC(C)(C)CC2=O (stereo unspecified)	4.3	-4.6	.	2	.	.	.	0.7	0
COc1c2c(nc3occc13)C(CC=C(C)C)(OC)C(=O)C=C2 (stereo unspecified)	5.3	-1.4	i	-3	11	0	3.9	0.7	-5
Cc1onc(C(=O)N2CCN(Cc3ccccc3)CC2)c1[N+](=O)[O-]	1.4	1.1	i	1	9	13	0.5	0.76	4
CCOC(CNC(=O)C(=O)Nc1cc2c3c(c1)CC(=O)N3CCC2)OCC	6.7	-2.6	i	-5	3	9	-2.7	0.69	9
COc1cccc(CNC(=O)Cn2cccc2C(=O)c2ccccc2C)c1	5.0	1.9	i	0	-3	-8	-0.3	0.68	0
COc1ccc(/C=N/n2cnnc2SCc2ccc(OC)cc2)cc1	.	-2.3	.	1	.	.	.	.	-8
CCCC(=O)N(Cc1cc2cc(OC)ccc2[nH]c1=O)c1ccc(OC)cc1	.	3.2	i	.	0	-5	-0.9	.	.
Cc1ccc(CCNC(=O)c2cc(-c3ccncc3)nc3ccccc23)cc1	-0.4	2.9	i	28	-1	-5	0.1	0.71	13
O=C(CCCc1cccs1)Nc1nc2c(s1)CCCC2	7.4	-0.5	.	-15	.	.	.	0.7	2
Cc1ccc(C)c(S(=O)(=O)N2CCN(CC(=O)NC(=O)NCc3ccccc3)CC2)c1	2.0	4.1	.	.	.	.	.	0.7	-2

Among those listed so far, these have a CF3 group.
SMILES	UCH37 inh	HNF4A DNA FP	FGF22 binding	ALR inh	rRNA inh HTS	rRNA inh HTS OD600	rRNA inh HTS RFP	Ecoli growth	Beta2AR agonist
CC(NC(=O)NCC1CCCO1)(C(F)(F)F)C(F)(F)F (stereo unspecified)	0.4	1.1	.	0	.	.	.	0.71	2
CCCCN1C(=O)C(NC(=O)C2CC2)(C(F)(F)F)C2=C1CC(C)(C)CC2=O (stereo unspecified)	4.3	-4.6	.	2	.	.	.	0.7	0

Rewritten comma-delimited: four of the compounds above.
mol,UCH37 inh,HNF4A DNA FP,FGF22 binding,ALR inh,rRNA inh HTS,rRNA inh HTS OD600,rRNA inh HTS RFP,Ecoli growth,Beta2AR agonist
COc1ccc(C(C)=O)cc1CON=C1CSCc2ccccc21,.,6.6,i,.,-2,5,5.2,.,.
Cn1c(N)c(C(=O)COC(=O)CSc2ccccc2)c(=O)n(C)c1=O,3.4,2.9,i,-19,-18*,12*,1.8*,0.65,3
Cc1ccc(C(=O)CSc2nnc(-c3ccncc3)n2C)cc1,1.1,-1.6,i,34,15,22,14,0.67,-3
Cc1ccc(CNS(=O)(=O)c2cc3c(cc2C)NC(=O)CO3)cc1,3.0,1.1,i,-26,-3,-12,3.4,0.77,-4

Remaining list, next part:
SMILES	UCH37 inh	HNF4A DNA FP	FGF22 binding	ALR inh	rRNA inh HTS	rRNA inh HTS OD600	rRNA inh HTS RFP	Ecoli growth	Beta2AR agonist
Cc1ccc(NC(=O)C2CCCC2)cc1Cl	2.3	-2.5	i	-4	-9	-16	-4.5	0.66	-1
CCCCn1c(SCC(N)=O)nc2ccc(N3CCOCC3)cc2c1=O	-92	-4.2	.	13	.	.	.	0.68	-3
Cc1ccc(C(=O)NCC(=O)OCc2nc3ccsc3c(=O)[nH]2)cc1C	.	-7.3	i	.	-3	9	-0.1	.	.
COc1cc(S(=O)(=O)N2CCCN(C)CC2)ccc1NC(C)=O	2.5	5.4	i	.	3	9	-2.9	0.68	2
CCOC(=O)N1CCN(C(=O)CN(c2cccc(C(F)(F)F)c2)S(C)(=O)=O)CC1	2.3	3.7	.	-8	.	.	.	0.64	-1
O=C(Cn1nnc(-c2ccccc2)n1)OCc1ccccc1	-0.3	-2.5	.	0	.	.	.	0.67	10
CCN(CC)CCn1c(NCc2cc(OC)ccc2OC)nc2ccccc21	4.3	-0.6	.	.	.	.	.	0.72	-5
COc1cc(C2NC(=O)NC(C)=C2C(=O)OC(C)(C)C)ccc1OCC(=O)O (stereo unspecified)	3.5	2.1	.	-9	.	.	.	0.66	0
Cc1cc(=O)oc2cc(OCC(=O)OCC(=O)Nc3ccc(C(C)C)cc3)ccc12	-6.0	0.2	i	4	-13	-18	-3.9	0.65	7
O=C(Nc1ccc(C(=O)O)cc1)Nc1cccc2ccccc12	1.1	-0.1	.	-8	-13	-12	-5.3	0.71	-11
CNCc1ccccc1Sc1cccc2ccccc12	0.6	2.5	.	-8	.	.	.	0.61	11
COc1ccccc1NS(=O)(=O)c1cccc(C(=O)OCC(=O)Nc2cc(C)on2)c1	-5.2	-1.4	.	-3	.	.	.	0.74	0
Cc1cccc(N/C=C(\[N+](=O)[O-])S(=O)(=O)c2ccccc2)c1C	4.2	0.0	.	18	9	9	4.1	0.68	2
COc1ccc(CNC(=O)COC(=O)c2ccc(S(=O)(=O)NCc3ccco3)cc2)cc1	1.4	-1.9	i	-1	1	8	-0.8	0.7	3
Cc1cc2c(=O)n(CC(=O)NCC(=O)N3CCN(Cc4ccccc4)CC3)cnc2s1	1.2	-1.4	.	7	.	.	.	0.74	-2
COc1ccc(C(C)(C)C)cc1NC(=O)C1=CC=CN2CCS(=O)(=O)N=C12	-2.8	-5.0	i	-12	-5	-1	-5.2	0.65	14
O=C(NCc1cccnc1)C1CCCN(Cc2cnn(-c3ccccc3)c2-n2cccc2)C1 (stereo unspecified)	4.0	0.1	.	-11	.	.	.	0.67	-6
N#CCN1C(=O)C2CCCN2c2ccc(S(=O)(=O)N3CCOCC3)cc21 (stereo unspecified)	2.6	-0.3	i	2	24	18	3.4	0.72	-1
COc1ccc(Cn2nnnc2CN2CCCCCC2)cc1	4.1	-0.8	i	1	-11	-18	-5.7	0.7	-2
COc1cc([N+](=O)[O-])ccc1NC(=O)c1cccc(NC(=O)C(C)C)c1	6.6	-2.7	.	-5	.	.	.	0.72	-8
Cc1noc(C)c1C(=O)Nc1ccc2ccccc2c1	1.2	-4.0	i	-1	7	14	2.9	0.68	13
COc1ccc(NC(=O)CCNC(=O)N2CC(=O)Nc3ccccc32)c(OC)c1	3.4	-5.9	i	-66	4	14	-1.1	0.69	3
Cc1onc(-c2c(F)cccc2Cl)c1C(=O)Nc1ccc(S(=O)(=O)N2CCOCC2)cc1	1.5	1.7	i	.	-4	-14	0.6	0.71	6
COC(=O)c1cc(NC(=O)C2CC2)cc(C(=O)OC)c1	1.2	2.7	.	0	.	.	.	0.74	-3
COc1ccc(-c2nn3c(-c4ccc(F)cc4)nnc3s2)cc1	-4.9	1.8	.	-4	.	.	.	0.69	-4
SMILES	UCH37 inh	HNF4A DNA FP	FGF22 binding	ALR inh	rRNA inh HTS	rRNA inh HTS OD600	rRNA inh HTS RFP	Ecoli growth	Beta2AR agonist
CCOC(=O)N1CCN(c2c(N3CCN(C(=O)OCC)CC3)c(=O)c2=O)CC1	5.1	1.4	i	-2	7	0	4.0	0.64	-5
O=C(Cn1ccc2ccccc2c1=O)NCCC(=O)N1CCN(c2cccc(C(F)(F)F)c2)CC1	1.9	2.3	.	-7	.	.	.	0.73	-1
O=C(N/N=C/c1c[nH]c2ccccc12)c1ccccc1Cl	.	1.7	i	9	-10	-1	3.3	.	28
c1ccc(Cc2c(C3CCCCC3)nc3c4ccccc4ccn23)cc1	.	6.0	i	.	2	4	-4.9	.	.
CC(=O)c1cccc(NC(=O)CSc2nc(N3CCOCC3)nc(N3CCOCC3)n2)c1	5.2	1.5	i	5	5	1	-3.0	0.72	0
Cc1ccc(C)c(COC(=O)CCN=C2NS(=O)(=O)c3ccccc32)c1	4.4	-0.5	i	-4	-19	-16	-1.0	0.68	4
Cc1c(Cc2ccccc2)c(=O)oc2cc(OCC(N)=O)ccc12	-109	-2.7	i	-4	9	7	-1.0	0.7	8
CCc1nc(SCC(=O)NCc2ccccc2)c2c(=O)n(C)c(=O)n(C)c2n1	2.5	-1.9	i	-4	1	5	-1.0	0.81	5
O=C(Nc1ccccn1)c1ccc([N+](=O)[O-])o1	3.0	-1.5	.	-15	.	.	.	0.53	-4
CC(C)CN(CC(C)C)C(=O)CC(=O)NC(=O)c1ccc(Cl)cc1	6.5	-1.1	.	6	.	.	.	0.67	-2
CCOC(=O)c1c(N)c2cc([N+](=O)[O-])cnc2n1C	4.3	-4.0	i	.	2	6	-2.2	0.7	-5
NC(=O)C1CCN(C(=O)c2ccc3nc(N4CCCCC4)sc3c2)CC1	2.4	-2.6	i	0	2	-3	-1.3	0.74	-12
COc1ccccc1N1CCN(C2CCCN(C(=O)c3ccoc3C)C2)CC1 (stereo unspecified)	2.5	-4.5	i	13	11	13	1.8	0.67	-3
Cc1ccc(-n2cnnn2)c2cccnc12	2.5	2.6	.	-3	.	.	.	0.63	0
CCN(CC)S(=O)(=O)c1cccc(C(=O)Nc2cccc(C)c2)c1	3.3	2.0	.	.	.	.	.	0.65	5
CN(CCC#N)C(=O)c1cc2c(Cl)nc3ccccc3c2s1	4.2	3.0	i	-1	7	11	-1.8	0.73	-8
Cc1cccc(C(=O)N2CCN(S(=O)(=O)N3CCCCCC3)CC2)c1	1.7	4.0	i	.	2	7	-0.9	0.67	-4
CN1CCN(S(=O)(=O)c2ccc(SCCOc3ccc(Cl)cc3)nc2)CC1	3.1	1.2	i	-2	1	1	0.1	0.67	8

Compound activity as filed in PubChem BioAssay.
